hNpr1 antagonist: human Npr1 receptor antagonism; P16066; HEK293 hNpr1 GloSensor cGMP, ANP-stimulated luminescence; Potency, µM (series often up to 46.3 µM), without a hit: at the highest dose activity change, negative = inhibition, actives largely listed as inhibitors; 1.6% of 76,000 active; AID 1347048; active = well fitted inhibition curve with a large enough effect; inconclusive = small, poorly fitted or top-dose-only effect; inactive = no such curve, though single readings can be large or run the other way;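 note: nearly all actives have a fitted effect of over 60% in size; nearly all hits also lower the signal before the agonist is added; a reference antagonist and vehicle were the controls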
Target sequence (P16066 whole entry, looked up): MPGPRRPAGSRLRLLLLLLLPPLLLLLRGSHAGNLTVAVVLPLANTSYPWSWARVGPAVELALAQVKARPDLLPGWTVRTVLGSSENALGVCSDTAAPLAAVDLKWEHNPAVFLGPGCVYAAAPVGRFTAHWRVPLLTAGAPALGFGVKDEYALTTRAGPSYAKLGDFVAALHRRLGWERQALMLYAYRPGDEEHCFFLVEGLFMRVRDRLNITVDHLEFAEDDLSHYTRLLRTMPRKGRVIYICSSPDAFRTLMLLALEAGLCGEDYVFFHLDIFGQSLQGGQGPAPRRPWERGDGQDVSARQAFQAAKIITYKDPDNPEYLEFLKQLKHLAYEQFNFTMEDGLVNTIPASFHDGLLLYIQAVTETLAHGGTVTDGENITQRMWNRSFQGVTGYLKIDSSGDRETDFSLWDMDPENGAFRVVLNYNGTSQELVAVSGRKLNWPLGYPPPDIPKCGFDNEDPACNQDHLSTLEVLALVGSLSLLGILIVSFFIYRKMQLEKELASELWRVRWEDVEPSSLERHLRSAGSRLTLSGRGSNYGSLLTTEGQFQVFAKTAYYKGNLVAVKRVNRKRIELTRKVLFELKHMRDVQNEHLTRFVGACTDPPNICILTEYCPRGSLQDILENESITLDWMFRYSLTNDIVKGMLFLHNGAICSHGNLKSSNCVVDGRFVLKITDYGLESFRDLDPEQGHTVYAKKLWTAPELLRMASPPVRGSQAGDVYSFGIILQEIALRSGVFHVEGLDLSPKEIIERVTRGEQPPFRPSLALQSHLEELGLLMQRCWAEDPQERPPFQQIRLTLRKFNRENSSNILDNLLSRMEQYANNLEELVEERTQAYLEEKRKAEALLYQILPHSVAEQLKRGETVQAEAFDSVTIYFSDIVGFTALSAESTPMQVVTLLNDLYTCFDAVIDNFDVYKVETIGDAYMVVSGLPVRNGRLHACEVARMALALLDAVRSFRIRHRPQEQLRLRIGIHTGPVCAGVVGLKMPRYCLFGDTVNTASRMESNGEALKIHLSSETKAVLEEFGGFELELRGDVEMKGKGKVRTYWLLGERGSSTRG
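HEK293 cells stably expressing human Npr1 and cGMP GloSensor pGS-40F, loaded 2 h with 2% GloSensor reagent, given compound 30 min at room temperature. Luminescence read before and 20 min after 0.1 nM hNppA.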
* hit, by the source's call; ? = inconclusive; [ ] = dose if it differs, or a comment. % is set by controls: 0 for no effect and ±100 for the full control effect; potency is the fitted concentration of half-maximal effect. This is a subset; the hit share may differ from the screen's.

smiles | hNpr1 antagonist
COCCC(=O)N1C[C@@H](Oc2ccccc2)C[C@@H]1C(=O)N1CCOCC1 | -4.0%
COc1ccc(C(=O)N2CCc3nn(Cc4ccccc4)c(=O)n3CC2)cn1 | -2.6%
Cc1ccc(F)cc1CN1CCOc2cc([S+](=O)([O-])N(C)C)ccc2C1 | 35.5µM*
CN(Cc1ccccc1)C(=O)c1ccc2c(c1)[nH]c(=O)n2C1CCC(O)CC1 (stereo not drawn) | -1.0%
CCN(Cc1ccccc1)C(=O)Cn1nc2n(c1=O)CCCCC2 | -1.6%
Cc1ccc(NC(=O)c2ccc3c(c2)N(C)C2CCCN2C3=O)cc1 (stereo not drawn) | -23.4%
Cc1ccsc1[C@@H]1CCN(Cc2cccn2-c2cccnc2)C[C@H]1O | -1.2%
CN(C)C[C@@H]1CN(S(C)(=O)=O)C[C@H]1NC(=O)CCc1nc2ccccc2[nH]1 | -2.6%
COCc1nc(-c2ccc(OC3CCN(C(=O)Nc4cccc(C)c4)C3)cc2)no1 (stereo not drawn) | -26.7%
CCCN(CC1CCOC1)S(=O)(=O)c1cc(F)ccc1C (stereo not drawn) | -1.3%
Cc1ccoc1C(=O)N1C[C@@H](CO)[C@H](c2nc(C3CC3)no2)C1 | 2.6%
CN1CCN(CCCNC(=O)C23CCCC=C2N(C2CCCC2)C(=O)CC3)CC1 (stereo not drawn) | 0.5%
Nc1ncccc1CN1CCC2(CC1)COCCN2C(=O)c1ccccc1 | ?
O=C(c1ccccc1)N1CCCC(n2cc(-c3nc(-c4ccccc4)no3)nn2)C1 (stereo not drawn) | 12.6µM*
CCc1nc(-c2c3n(c(=O)n(Cc4c(F)cccc4Cl)c2=O)CCCC3)no1 | 0.9%
CC1(CCCCc2ccccc2)COc2ccc(C(=O)Nc3cccnc3)cc2N1 (stereo not drawn) | ?
COc1ccc(CCc2nc(-c3nnn4c3COC(c3ccc(OC)cc3)C4)no2)cc1 (stereo not drawn) | 17.7%
O=C(NC1CCN(c2cc(-c3ccc(Cl)cc3)[nH]n2)C1)c1ccc(F)c(F)c1 (stereo not drawn) | -15.2%
O=C(NCc1ccncc1)c1ccc(Cn2ccn3nc4c(c3c2=O)CCCC4)cc1 | -16.2%
Cc1cc(=O)n(CC(=O)Nc2ccc3c(c2)OCCO3)c(N2CCc3ccccc3C2)n1 | -21.1%
Cc1nn(C)c(C)c1S(=O)(=O)N1CCCC(Cn2c(C3CC3)nc3cccnc32)C1 (stereo not drawn) | -1.1%
O=C1CO[C@H]2CCN(Cc3c[nH]c4ccccc34)CC[C@@H]2N1Cc1ccccc1 | -4.2%[70.6 µM]
COCCNC(=O)C[C@@H]1C[C@H]2O[C@H](CNC3CCC3)[C@@H](O)[C@H]2O1 | 5.4%[70.6 µM]
O=C(NC1CCCC1)N1CCCCC12Cc1ccccc1NC2=O (stereo not drawn) | -1.1%[70.6 µM]
COc1cc(NC(=O)Cn2ccn3nc(-c4ccccc4)c(CO)c3c2=O)cc(OC)c1 | 0.2%
Cn1cc(C2CCN(C(=O)c3c(Cl)cc(Cl)cc3Cl)CC2)c2ccccc21 | -12.3%
COc1cc(CN2C[C@@H](CO)[C@H](NC(C)=O)C2)cc(OC)c1 | 0.1%
COCCOc1cc(C)c2c(c1C)C[C@H](C(C)C(=O)N1CCC(O)CC1)CC2 (stereo partly drawn) | -1.3%[70.6 µM]
CCCC(=O)N1CCC(O)(c2ccccc2)[C@H](N2CCCC2)C1 (stereo partly drawn) | -0.9%
COc1ccc(-c2noc(CC3CCN(C(=O)c4cc(Cl)ccc4OC)CC3)n2)cc1 | -28.9%

Reformatted as labelled records: four of the compounds above.
CN(C)C[C@@H]1CN(S(C)(=O)=O)C[C@H]1NC(=O)CCc1nc2ccccc2[nH]1
  hNpr1 antagonist: -2.6%
COCc1nc(-c2ccc(OC3CCN(C(=O)Nc4cccc(C)c4)C3)cc2)no1 (stereo not drawn)
  hNpr1 antagonist: -26.7%
CCCN(CC1CCOC1)S(=O)(=O)c1cc(F)ccc1C (stereo not drawn)
  hNpr1 antagonist: -1.3%
Cc1ccoc1C(=O)N1C[C@@H](CO)[C@H](c2nc(C3CC3)no2)C1
  hNpr1 antagonist: 2.6%

Going on with the list.
smiles | hNpr1 antagonist
Cc1ccc(CN2CCn3nnc(CCC(=O)NCc4ccccc4)c3C2)o1 | -0.7%
Cc1cnc(-c2ccccc2)n1C1CCN(S(C)(=O)=O)CC1 | -1.9%
Cc1ccccc1OCc1nc(C2CN(C(=O)NC(C)C)C2)no1 | 5.1%
COc1ccc(C2Cn3nnc(-c4nc(-c5ccccc5C)no4)c3CO2)cc1 (stereo not drawn) | -9.1%
Cc1nc(CNC(=O)[C@H]2CCC[C@@H](O)C2)nc2c1CCCC2 | 0.5%
Clc1ccc(-c2cnc([C@@H]3COCCN3C3CCC3)[nH]2)cc1 | -13.2%[70.6 µM]
O=C1CC(c2ccccc2)N(C(=O)NCc2ccccc2)CCCCCN1 (stereo not drawn) | -6.5%
CCc1cccc(C)c1NC(=O)Cn1ccn2nc3c(c2c1=O)CCCCC3 | 6.0%
COc1ccc(-c2cn3c(n2)CO[C@@H](CNC2CCCCC2)C3)cc1 | 5.5%[70.6 µM]
O=C1CO[C@H]2CCN(Cc3cccc(OC(F)(F)F)c3)CC[C@@H]2N1CCN1CCCC1 | 1.1%
CCc1ccc(C2CC(C(=O)NCc3ccco3)CN(C(=O)c3ccc(F)cc3)C2)cc1 (stereo not drawn) | -28.6%
Cc1nn2c(c1-c1cccnc1N1CCOCC1)N(C(=O)c1ccc(Oc3ccccc3)cc1)CCC2 | -2.0%
CC1(CNCc2ccccc2)COc2ccc(C(=O)N3CC(O)C3)cc2N1 (stereo not drawn) | -12.8%[70.6 µM]
Cc1ccc(Cl)cc1NC(=O)NCC1CCOCC1 | 2.9%
Cc1ccc(CN2CCC3(CCNCC3)C2)c(Cl)c1Cl | 1.7%
CN(Cc1ccccc1)c1ncccc1CNC(=O)Nc1ccccc1F | 3.5%
Cc1cccc(S(=O)(=O)N2CCCN(C)c3ccccc32)c1 | -6.2%
COc1ccc(C(=O)NC(C)c2nncn2C)cc1OC1CCN(C(C)=O)CC1 (stereo not drawn) | 2.5%
CC1=C[C@@H](CNC2CCOCC2)[C@H](C(C)C)C[C@H]1Cc1nc2ccccc2n1C | -22.6%[70.6 µM]
Cc1cn2nc(C(=O)Nc3ccc(C)c(F)c3)cc2c(N(C)Cc2ccccc2)n1 | 12.0%
CN1C(=O)[C@@H]2C[C@@H](CN2C2CCOCC2)Oc2ccccc21 | -14.1%[70.6 µM]
CCC1Oc2ccc(NC(=O)c3ccc(F)cc3F)cc2CN(Cc2ccc(Cl)cc2)C1=O (stereo not drawn) | -1.9%
Cc1ccc(C(=O)N2CCCN(C(=O)C3CC3)C(c3ccccc3)CC(=O)NCC2)s1 (stereo not drawn) | -11.9%
Cc1ccccc1C(=O)N[C@H]1[C@H](O)[C@H](O)C[C@@H]1c1ccc(C(F)(F)F)cc1 | ?
CN(C)C[C@@H]1CN(Cc2cccnc2)C[C@H]1NC(=O)Cc1ccsc1 | -1.2%
COc1cccc(-c2n[nH]c3c2CC(=O)N(Cc2ccccc2F)C3)c1OC | -5.9%[70.6 µM]
C[C@@H]1CN(C(=O)c2cccc(N3CCCC3=O)c2)C[C@@]1(O)C1CCC1 | 5.4%
COc1ccc(C(=O)NCc2nnc3ccc(-c4ccc(C)c(C)c4)nn23)cc1 | -1.6%
CCc1noc(-c2ccn3c(CNC(=O)c4ccc(F)c(Cl)c4)nnc3c2)n1 | -7.1%
CCN(CC)Cc1cnc2c(C(=O)NC(C)CO)cnn2c1 (stereo not drawn) | 1.4%
COCC(=O)N1CCn2c(nn(-c3ccncc3)c2=O)C1 | 9.2%[70.6 µM]
OC1(c2cccc(C(F)(F)F)c2)CCN(Cc2nc(COc3ccccc3)no2)CC1 | ?
c1ccc(CCc2nc3nccc(-c4ccncc4)n3n2)cc1 | -2.5%
NC(=O)[C@H](Cc1ccc(O)cc1)NC(=O)[C@@]1(O)C[C@@H](O)[C@H](O)[C@@H](NC(=O)CC2(CC(=O)O)CCCC2)C1 | 3.9%
O=C1NC[C@@H](CCC(=O)N2CCN(c3ccccc3)CC2)N2C[C@@H](NCc3ccccc3)C[C@@H]12 | -1.9%
CC(=O)c1ccc(NC(=O)N2C[C@@H]3C[C@H](C2)c2ccc(NS(=O)(=O)Cc4ccccc4)c(=O)n2C3)cc1 | -1.4%
O=C(c1cccn2nccc12)N1CCOCC1 | 2.3%[70.6 µM]
CC(C)C(=O)N1CCC(Oc2ncccc2C(=O)N2CCCCC2)C1 (stereo not drawn) | 4.6%
COc1ccc(CN2C(=O)[C@@H]3C[C@@H](CN3C)Oc3ccccc32)cc1 | 2.0%[70.6 µM]
COCC1CN(C)CC12CCN(Cc1scnc1C)CC2 (stereo not drawn) | 5.1%
CCCNC(=O)N1CC(c2nc(CCOc3cccc(C)c3)no2)C1 | 3.5%
O=C(Cc1cccn1-c1ccc(F)cc1)NCCN1CCc2ccccc2C1 | 0.4%
CN(Cc1ccc2nonc2c1)Cc1ccccc1OCC(O)CN1CCCCC1 (stereo not drawn) | 0.0%
CC(C)(C)C(=O)N1CC[C@@H](CC(=O)O)[C@@H](CCN2CCN(c3ccc(F)cc3)CC2)C1 | 3.2%[70.6 µM]
COc1ccc(CN2CCN(c3ncnc4c3CCC4)CC2CCO)c(C)c1C (stereo not drawn) | -25.0%
CCOc1ccc(CC(=O)N2CCN(C(=O)c3nnn4c3COC(c3ccc(C)cc3)C4)CC2)cc1 (stereo not drawn) | 0.5%
O=C(Cc1cccc(Cl)c1)N1CCc2nc(C3CC3)nc(-c3ccc(Cl)cc3)c2C1 | -3.5%
OCC1(Cc2ccccc2)CCCN(Cc2ccccc2-c2ccco2)C1 (stereo not drawn) | -2.1%
Cc1nn(CC(=O)NCc2cc(F)ccc2F)c(=O)c2nc(C(C)C)sc12 | -1.6%
COc1ccc(-n2c(C(C)NC(=O)OCc3ccccc3)nc3cccnc32)cc1 (stereo not drawn) | 18.5%
CS(=O)(=O)c1ccc(CN2CCCC(Cc3nc4ccccc4[nH]3)C2)cc1 (stereo not drawn) | 3.9%
O=C(NC1CCCN(c2cc(N3CCCC3)ncn2)C1)c1cccs1 (stereo not drawn) | -0.2%
COc1cccc(CNC(=O)CCC2CCN(S(=O)(=O)c3ccccc3)CC2)c1 | -22.0%
CC(=O)N1CCC2(CC1)OC(=O)N(Cc1ccccc1F)C2(C)c1ccccc1 (stereo not drawn) | -1.6%[70.6 µM]
O=C(Cc1ccsc1)N1CCC(Nc2cccnc2)C1 (stereo not drawn) | 4.6%
COc1ccc(-c2cc(-c3ccc(F)cc3)cn3cncc23)cc1 | 0.0%[70.6 µM]
Cc1nc(C)c(C(=O)N2CCC3(CC2)CC(N2CCOCC2)CCO3)s1 (stereo not drawn) | 2.0%
Cc1noc(C)c1S(=O)(=O)N1CCc2nnc(C3CC3)n2CC1 | -1.2%
C[C@H](O)c1onc(-c2ccccc2)c1C(=O)N1CCN(C)CC1 | 3.6%[70.6 µM]
C=CCNc1nc(CC)nc2c1CCN(C(=O)c1cn(C)nc1C)CC2 | 28.3%

Further entries follow:
smiles | hNpr1 antagonist
CCCCc1nn(CC(=O)N2CCOC(c3ccccc3)C2)c(=O)n1CC (stereo not drawn) | 1.9%
CC(C)C1=NOC2(CCN(Cc3ccc(C(F)(F)F)cc3)CC2)C1 | 11.2µM*
CCN(CC)Cc1cnc2c(C(=O)N3CCC(N(C)C)C3)cnn2c1 (stereo not drawn) | 2.3%
CCNC(=O)N1CCC(Oc2ncccc2C(=O)N2CCCCC2)C1 (stereo not drawn) | 5.4%
Cc1noc(C)c1[S+](=O)([O-])N1CCC(c2nn(-c3ccccc3)c(=O)[nH]2)CC1 | -4.2%
COc1cccc(-c2noc(CC3CCN(C(=O)c4cccc(Cl)c4)CC3)n2)c1 | 8.91µM*
CC(C)C(=O)N[C@H]1[C@H](O)[C@H](O)C[C@@H]1c1cccnc1 | 6.9%[70.6 µM]
COC(=O)[C@@H](C)NC(=O)[C@H]1CN(C(=O)c2cccnc2)CCN1C(=O)c1cccs1 | 1.9%[70.6 µM]
CN1[C@@H](CCC(=O)NCc2cccs2)CNC(=O)[C@@H]2[C@H]1CCN2CC(C)(C)C | 3.8%[70.6 µM]
O=C(CN1CCCC1=O)N1CCN(Cc2ccccc2)CC1 | -4.0%
COc1ccc(-c2cc3c(=O)n(CCNC(=O)c4ccc(F)c(F)c4)ccn3n2)cc1 | -13.9%
O=S(=O)(NCc1ccccc1)NCc1noc(C2CCCO2)n1 (stereo not drawn) | 3.9%
COc1ccc(C(=O)N2CCC3(CC2)N=C(c2ccccc2)NO3)cc1F | -7.7%
Cc1nc2c(c(-c3ccc(Cl)cc3)n1)CN(C(=O)c1ccc3c(c1)OCO3)CC2 | 14.8%
Cc1nc(C)c(CN(C)C2CCCN(CCc3ccccc3)C2)nc1C (stereo not drawn) | -0.1%
CC1(C(=O)Nc2ccccc2)CN(Cc2ccccc2)Cc2ccc(N3CCOCC3)nc21 (stereo not drawn) | -2.0%
COc1ccc(C(=O)NC(C(=O)NC(C)C(C)C)C2CCN(C(=O)c3ccc(C)cc3)CC2)cc1 (stereo not drawn) | -1.5%
COc1ccc(-c2ccc(C(=O)NC3CC(c4cc(=O)[nH]c(N)n4)C3)o2)cc1 (stereo not drawn) | -7.8%
Cn1cc(-c2cnc3n[nH]c(-c4ccccc4)c3n2)cn1 | -2.1%[70.6 µM]
Cc1nnc([C@H]2CCN(C3CCN(C)CC3)C2)o1 | -2.7%[70.6 µM]

Screening results (PubChem BioAssay)
